Screens as filed in PubChem BioAssay.
miR-21 FLuc: raises the signal of a miR-21 reporter; Potency, µM (top dose mostly 38.3 µM), for inactives: top-dose reporter change, positive = more light; HeLa miR-21 FLuc reporter, luciferase, 48 h; 340,000 tested, under 10 active; active = well fitted rising curve with a large enough effect; inconclusive = small, poorly fitted or top-dose-only effect; inactive = no such curve, though single readings can be large or run the other way;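 note: % of control where 0% means no effect; miR-21 action dims this reporter so a rising signal means less miR-21 action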
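Luminescence from a firefly luciferase reporter carrying a miR-21 binding site downstream, stably expressed under a CMV promoter in HeLa cells that make miR-21 endogenously, reports miRNA modulation after 48 h compound exposure up to approximately 40uM final.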
Rango complex inh: inhibitors of Rango-importin beta complex formation; Rango CFP/YFP FRET sensor + importin beta, 45 min; Potency, µM (series often up to 92.2 µM), for the others: top-dose inhibition of complex formation; Q14974; AID 540263; 340,000 tested, 0.031% active; active = rising FRET ratio curve, often small or poorly fitted; inconclusive = mostly compound fluorescence or quenching in the first reads; inactive = flat curves in all reads;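 note: potency is the fitted concentration of half-maximal effect; 0% = DMSO wells and 100% = buffer wells lacking importin beta; nearly all actives have a fitted effect of over 15% in size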
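Inhibition scored from the CFP 486 nm/YFP 530 nm FRET ratio 45 min after adding 0.125 microM importin beta to 50 nM Rango biosensor preincubated 5 min with compound (room temperature, PBS with DTT, Tween-20, BSA). No-importin wells as positive control.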
Rango dissoc inh: inhibition of RanGTP-driven Rango-importin beta dissociation; 340,000 tested, 0.071% active; O95149+P62826; Potency, µM (doses to about 46.1 µM), for inactives: top-dose activity change, negative = inhibition; Biochemical FRET Rango-importin beta, RanGTP-induced dissociation; active means falling FRET ratio curve, often poorly fitted, with flat reads before Ran was added; inconclusive means other falling curves, or compound fluorescence or quenching; inactive means flat or rising ratio curve;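 note: potency is the fitted concentration of half-maximal effect; % of control where 0% means no effect; nearly all actives have a fitted effect of over 45% in size; -100% = wells without RanGTP and RCC1; the record marks most hits as doubtful in a second field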
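Compounds preincubate 5 min with complex of recombinant Rango and importin beta in PBS with 1 mM DTT. Ran (0.6 uM) loaded with 2 mM GTP plus 0.2 uM RCC1 starts dissociation; FRET is recorded 45 min later.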
GLA inh pH 4.5: alpha-galactosidase A (human) inhibition, pH 4.5; purified enzyme, 4-MU-alpha-Gal fluorescence, pH 4.5; activity change, negative = inhibition, % at 105 µM; 230,000 tested, under 10 active; AID 1467; inconclusive = small, poorly fitted or top-dose-only inhibition, or a rising curve; inactive = flat fitted curve, though single readings scatter; no compound was filed as active;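 note: 0% = full activity with enzyme and -100% = basal without enzyme; dose as in the result columns while the protocol names 77 µM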
Target sequence (P06280 whole entry, looked up): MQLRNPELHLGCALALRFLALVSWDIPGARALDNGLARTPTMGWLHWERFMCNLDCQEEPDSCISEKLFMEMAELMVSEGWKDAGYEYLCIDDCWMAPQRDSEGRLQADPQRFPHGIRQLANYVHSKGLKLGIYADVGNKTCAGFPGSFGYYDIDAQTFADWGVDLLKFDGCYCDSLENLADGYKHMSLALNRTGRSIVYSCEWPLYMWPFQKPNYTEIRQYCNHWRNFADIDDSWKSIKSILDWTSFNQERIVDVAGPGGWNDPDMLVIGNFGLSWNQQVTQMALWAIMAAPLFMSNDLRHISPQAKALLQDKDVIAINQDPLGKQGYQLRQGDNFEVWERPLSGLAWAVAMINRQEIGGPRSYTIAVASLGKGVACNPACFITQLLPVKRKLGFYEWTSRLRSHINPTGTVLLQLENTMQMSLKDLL
Numbers without * were called inactive; ? = inconclusive; . = no result given; & = joins results of further samples.

SMILES	miR-21 FLuc	Rango complex inh	Rango dissoc inh	GLA inh pH 4.5
CC(OC(=O)c1ccncc1)C(=O)Nc1cc(S(=O)(=O)N2CCCCC2)ccc1Cl (stereo unspecified)	-11%	-3.2%	10%	8
Cc1ccc(C)c(OCc2cc(C(=O)N3CCN(c4cnccn4)CC3)no2)c1	-5%	0.7%	7%	.
CCOC(=O)C1=C(COC(=O)C2CC(=O)N(c3ccccc3F)C2)NC(=O)NC1C (stereo unspecified)	.	-0.6%	-17%	.
CC(C)NC(=O)CN(Cc1ccc2c(c1)OCO2)C(=O)CCC(=O)Nc1ccccn1	-1%	3.7%	-7%	.
COc1cccc(C(=O)NCC(=O)n2nc(C)cc2C)c1	-6%	-5.9%	5%	5
Cn1c(=S)n(/N=C/c2cccs2)c2ccccc21	2%	2.9%	-4%	-2
C=CCNC(=O)CSCc1ccc(Br)cc1	1%	-2.0%	3%	2
COc1ccc(NC(=O)CSc2nnc(-c3cccnc3)s2)cc1	7%	3.7%	-6%	.
CCC1CCCCN1S(=O)(=O)c1ccc(NC(=O)c2ccncc2)cc1 (stereo unspecified)	24%	-0.3%	9%	.
Cc1cc(C(=O)COC(=O)c2ccc(O)cc2)c(C)n1CC1COc2ccccc2O1 (stereo unspecified)	-7%	-2.1%	6%	-3
CC(C(=O)N1CCc2ccccc21)N(C)CC(=O)Nc1ccccc1Cl (stereo unspecified)	.	7.4%	?	.
O=C(CN1C(=O)c2cccc3cccc1c23)NC1CCCCC1	0%	?	?	.
COc1ccc(C)cc1N(CC(=O)Nc1ccc2c(c1)OCCO2)S(C)(=O)=O	-6%	0.8%	-13%	3
COc1cc(/C=N/Nc2nc(C)cc(=O)[nH]2)ccc1O	0%	-1.6%	-13%	.
O=C(CCNC(=O)c1ccc(Br)cc1)Nc1ccc(S(=O)(=O)N2CCCCC2)cc1	.	0.1%	-15%	.
Cc1cccc(NC(=O)CSc2n[nH]c(-c3cccnc3)n2)c1	6%	1.3%	-10%	.
O=c1oc(-c2cccs2)nc2c1cnn2-c1ccccc1	0%	2.2%	1%	23
Clc1ccccc1-c1nnc(CNC2CC2)o1	-19%	2.0%	-7%	9
CC1=CC(c2ccccc2)=Nc2ccc(C)cc2N1	-43%	-2.0%	10%	-6
CCCCCOC(=O)CC(C(=O)OCCCCC)N1CCCCC1 (stereo unspecified)	-6%	-0.2%	20%	-11
Clc1ccc(-c2ccnc3nc(N4CCOCC4)nn23)c(Cl)c1	.	0.3%	1%	.
Cc1cccc2c(-c3ccccc3)cc(=O)[nH]c12	-14%	-0.6%	0%	0
C[C@H](CO)N1C[C@H](C)[C@@H](CN(C)S(=O)(=O)c2cn(C)cn2)Oc2c(NC(=O)Nc3ccc4c(c3)OCO4)cccc2C1=O	.	-2.7%	2%	.
Cc1cc(NCc2cccnc2)no1	2%	0.3%	-1%	-4
Cc1cccc(N2CCN(S(=O)(=O)c3ccc4c(c3)CC(C)N4C(=O)C3CC3)CC2)c1C (stereo unspecified)	0%	-0.4%	-3%	.

5 compounds drawn at random from those above, as already listed:
SMILES	miR-21 FLuc	Rango complex inh	Rango dissoc inh	GLA inh pH 4.5
Cc1ccc(C)c(OCc2cc(C(=O)N3CCN(c4cnccn4)CC3)no2)c1	-5%	0.7%	7%	.
CCCCCOC(=O)CC(C(=O)OCCCCC)N1CCCCC1 (stereo unspecified)	-6%	-0.2%	20%	-11
O=C(CN1C(=O)c2cccc3cccc1c23)NC1CCCCC1	0%	?	?	.
O=c1oc(-c2cccs2)nc2c1cnn2-c1ccccc1	0%	2.2%	1%	23
Cc1cc(C(=O)COC(=O)c2ccc(O)cc2)c(C)n1CC1COc2ccccc2O1 (stereo unspecified)	-7%	-2.1%	6%	-3

Next section.
SMILES	miR-21 FLuc	Rango complex inh	Rango dissoc inh	GLA inh pH 4.5
Cc1nonc1NC(=O)c1oc2ccc(F)cc2c1C	-9%	?	?	.
CCOC(=O)NC(=O)c1cn(CCN(C)C)c(=O)[nH]c1=O	-5%	-1.7%	7%	6
Cc1ccc(Oc2ccc(C(=O)NC3CCSC3=O)cn2)cc1 (stereo unspecified)	-9%	-1.4%	-15%	1
C(=Cc1cnnc2ccccc12)c1ccccc1	.	6.2%	-7%	.
COc1cc(OC)cc(OCC(O)Cn2cnc3cc(C)c(C)cc32)c1 (stereo unspecified)	0%	0.1%	0%	-1
CSc1cccc(NC(=O)CCCNC(=O)c2ccc(Cl)cc2)c1	-3%	0.2%	2%	.
O=[N+]([O-])c1ccc(N/N=C\c2ccccc2OCc2ccccc2)cc1	-5%	?	?	-2
CCCCc1nc(Cl)c(CO)n1Cc1ccc(-c2ccccc2-c2nn[nH]n2)cc1	-1%	0.3%	5%	4
CCOc1ccc(N(C(=O)Cn2nnc3ccccc32)C(C(=O)NC(C)(C)CC)c2cccn2C)cc1 (stereo unspecified)	-11%	-0.9%	2%	-4
CCOc1ccc(S(=O)(=O)Nc2ccccc2SC)c2cccnc12	-1%	-0.1%	-17%	4
Cc1ccc(NS(=O)(=O)c2ccc3c(c2)CCC(=O)N3)cc1C	-5%	-1.5%	-1%	7
CC(C)NC(=O)C(=O)NCc1ccccn1	-1%	13%	2%	-5
Cc1nn(Cc2ccccc2)c(Cl)c1/C=C1\NC(=S)NC1=O	-12%	-2.9%	2%	-3
Cc1cccc(OCC(=O)N/N=C/c2ccc3c(c2)OCO3)c1	-18%	0.9%	-2%	5
CCOC(=O)C1CCCN(CCCc2ccccc2)C1 (stereo unspecified)	-4%&-6%	3.9%&0.7%	22%&11%	-5&-5
CCOC(=O)C(C(=O)Nc1ccccc1C)C1CCCCC1 (stereo unspecified)	-2%	-4.4%	12%	8
CCCCN1CC[C@H]2C=CC[C@@H](C(=O)Nc3ccc(OC)cc3)[C@H]2C1=O	.	4.5%	-6%	.
CCOc1ccc(C(=O)CC(C(=O)O)N2CCCCC2)cc1 (stereo unspecified)	.	-0.5%	26%	.
Cc1ccc(C(=O)NNC(=O)c2n[nH]c(=O)c3ccccc23)cc1C	.	-0.4%	1%	.
Cc1cccc(OC(=O)NCCOC(=O)N(O)c2ccc(Cl)cc2)c1	-4%	5.2%	1%	-2
Cc1cc(S(=O)(=O)N2CCCC2)ccc1OCC(=O)NCc1ccco1	0%	1.0%	0%	-5
O=C(NC1CCCCC1)N1CCN(c2ncccn2)CC1	-6%	-2.2%	-7%	-3
COc1cccc(-c2ncc3ccccc3c2COC(=O)c2ccc(C(F)(F)F)cc2)c1	.	5.1%	-4%	.
Cc1cccc(C(=O)NC(C(=O)Nc2ccc(S(=O)(=O)Nc3nccs3)cc2)C(C)C)c1 (stereo unspecified)	.	?	-29%	.
Cc1ccc(C(=O)Nc2cccc(S(=O)(=O)N3CCOCC3)c2)cc1[N+](=O)[O-]	-2%	3.3%	41%	-27

More structures follow:
SMILES	miR-21 FLuc	Rango complex inh	Rango dissoc inh	GLA inh pH 4.5
COCc1cc(C)nc(SCC(=O)Nc2cc3c(cc2C#N)OCO3)c1C#N	2%	?	-23%	3
COc1ccc(OC)c(CNC(=O)c2nn(C)c3c2CS(=O)(=O)c2ccccc2-3)c1	0%&6%	3.6%	-1%	.
O=CNc1ccc2c(c1)Cc1cc([N+](=O)[O-])ccc1-2	.	6.5%	-7%	.
CCCN(CCC)S(=O)(=O)c1ccc(NC(=O)COc2ccccc2)cc1	0%	4.4%	9%	-12
COc1ccc(CCC(=O)NCc2cn3ccc(C)cc3n2)cc1	0%	-5.2%	-20%	-2
O=S(=O)(NC1CCc2ccccc21)c1ccc(S(=O)(=O)N2CCCC2)cc1 (stereo unspecified)	9%	-3.3%	3%	5
Cn1c(SCC(=O)Nc2ccc(NC(=O)c3cccs3)cc2)nnc1-c1ccncc1	-11%	1.0%	-10%	1
Cc1nnc(NC(=O)c2c(-c3ccccc3)noc2C)s1	10%	-0.6%	19%	6
COc1ccc(OC)c(/C=N/n2c(-c3n[nH]c4c3CCC4)n[nH]c2=S)c1	0%	0.3%	-2%	2
CCCn1c(=O)c2ccccc2n2c(SCC(N)=O)nnc12	0%	-2.8%	-7%	.
COC(=O)C1CCN(C(=O)COC(=O)c2cc(-c3ccccc3)nc3ccc(OC)cc23)CC1	.	?	?	.
Cc1nc(-c2ccc(C(=O)NCCO)cc2)cs1	-29%	-3.5%	3%	4
CC1CCc2nn(CC(=O)NC3CCCC3)cc2C1 (stereo unspecified)	-24%	-0.1%	-2%	-11
O=C(CSc1nnc2ccccn12)NNC(=O)c1ccccc1	-6%	?	?	-9
O=c1cc(O)n(-c2ccc(F)cc2)c(=S)[nH]1	-7%	-0.7%	-11%	-3
CCOc1ccc(C(=S)N2CCOCC2)cc1	-1%	3.4%	2%	4
O=C(O)c1ccc(N/N=C2/CCSc3ccc(F)cc32)cc1	-46%	2.7%	-16%	.
CCOc1ccc(-n2nnnc2SCC(=O)Nc2ccc(NC(C)=O)cc2)cc1	-2%	-0.8%	-10%	.
CCOC(=O)C1Nc2ccc(OC(F)(F)F)cc2C2C=CCC12 (stereo unspecified)	.	-3.5%	-5%	.
Cn1c(=O)c(NC2CCCCC2)c2c3c(cccc31)C(=O)c1ccccc1-2	0%	?	?	-15
CCCCN(C(=O)C1CCN(C(=O)c2ccccc2C)CC1)c1c(N)n(CCC)c(=O)[nH]c1=O	.	-0.2%	3%	.
COC(=O)c1ccccc1NS(=O)(=O)c1cn(C)c(=O)n(C)c1=O	-3%	1.7%	1%	-5
CCCCN(CC)CCCNC(=S)Nc1ccc2nc(N3CCN(C)CC3)cc(C)c2c1	-14%	-2.7%	4%	1
O=C(CSc1nnc(CNC(=O)c2cccs2)o1)Nc1ccc2c(c1)OCO2	6%	-2.8%	13%	-2
O=C(Nc1ccc(S(=O)(=O)N2CCCC2)cc1)c1ccc([N+](=O)[O-])cc1	1%	2.5%	0%	.

Additional entries
SMILES	miR-21 FLuc	Rango complex inh	Rango dissoc inh	GLA inh pH 4.5
CCCN(CCC)CCCNC(=O)C1CCN(S(=O)(=O)c2cccc3nsnc23)CC1	1%&1%	?	-10%	.
Cc1csc(NC(=O)C2CCN(S(=O)(=O)c3ccccc3F)CC2)n1	22%	-2.3%	-10%	2
C/C(=N\N(c1ccccc1)c1ccccc1)c1ccc(O)cc1	1%	2.0%	-11%	.
CC(C)(CNC(=O)c1ccccc1NS(C)(=O)=O)N1CCCCC1	-1%	-3.0%	-14%	.
COCCNC(=S)N(CCO)Cc1cc2cc3c(cc2[nH]c1=O)OCCO3	-21%	1.1%	-12%	.
O=C(Nc1ccc(Br)cn1)c1ccc2nccnc2c1	.	0.7%	-11%	.
CCCc1nnc(NC(=O)CCC(=O)NCc2ccccc2Cl)s1	4%	-1.9%	47%	.
Cc1ccc2nc(/C=C/c3cccc(F)c3)ccc2c1	-66%	7.9%	8%	3
Clc1nc(-c2ccccn2)nc2scc(-c3ccccc3)c12	25%	0.9%	33%	3
COc1ccc(-c2cc(-c3ccc(N)cc3)nc(N)c2C#N)cc1OC	3%	?	?	-2
CCOC(=O)c1c(NC(=O)COC(=O)CNC(=O)c2ccc(Cl)cc2Cl)sc(C(=O)N(C)C)c1C	.	4.8%	11%	.
Fc1cccc(CN2CCSCC2)c1	-8%	2.9%	?	.
O=C(NCCc1ccccc1F)C1CCC(=O)N(CCCN2CCCC2=O)C1 (stereo unspecified)	-2%	-4.4%	1%	.
CC(C)Oc1ccc(S(=O)(=O)N2CCOCC2)cc1NC(=O)Cc1ccsc1	.	0.3%	10%	.
O=[N+]([O-])c1cc([N+](=O)[O-])c2cccnc2c1O	4%	.	.	-10
CCN(CC)c1ccc2ccc(=O)oc2c1	-24%	?	?	15
Cc1ccc(OCCC(=O)NNC(=O)c2ccc(Br)cc2)cc1	.	7.3%	-1%	.
COc1ccc2c(c1)c(=O)c(C(=O)c1ccc(F)cc1)cn2CC(=O)Nc1ccc(F)cc1	8%	-0.3%	10%	5
CC(=O)Nc1cc2c(cc1[N+](=O)[O-])-c1ccccc1C2O (stereo unspecified)	.	0.4%	-2%	.
Cc1ccc(C(=O)NCCSC(C)(C)C)cc1	-5%	-0.4%	15%	-1
C#CC(C)(C)NC(=O)c1cnc(-c2ccccc2)nc1-c1ccccc1	-6%	-3.7%	1%	.
O=C(NCCN1CCN(C(=O)NC2CCCCC2)CC1)NC1CCCCC1	-2%	-3.7%	-6%	-10

The list is partial, so the mix of outcomes need not match the whole.
